# Source: PubChem (National Center for Advancing Translational Sciences (NCATS))
# PINK1 modulator: PINK1 expression modulation. PINK1 immunofluorescence, high-content cytometry, 24 h. Potency, µM (series often up to 76.6 µM), without a hit: at the top dose activation (PINK1 increase), most hits filed as activators. 410,000 tested, 0.2% active. AID 624263; active = well fitted activation curve with a large enough effect; inconclusive = small, poorly fitted or top-dose-only effect; inactive = flat fitted curve, though single readings scatter; cell line not stated here;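 also: potency is read from the fitted curve at half-maximal effect; % of control where 0% means no effect; nearly all actives have a fitted effect of over 65% in size; a mitochondrial uncoupler was the plate control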
#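 PINK1 protein level read as immunofluorescence by microplate cytometer in a fixed, stained stable cell line after 24 h exposure to five compound concentrations, with CCCP as control.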
# D2 agonist: activates the human D2 dopamine receptor. P14416. DiscoveRx PathHunter D2 beta-arrestin, luminescence, 90 min; 100% = 57 uM dopamine signal. activation, % (test concentration not listed). 360,000 tested, 0.084% active; in the data active = activation above about 40%; inconclusive = about 15% to 40%; inactive = below about 15%; also: compound concentration not given in the record; the text of the record calls up to 30% inactive
#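 Agonist mode: compounds alone added to overnight-plated D2 PathHunter cells for 90 min at 37 C, with 57 uM final dopamine (EC100) defining full response. Beta-arrestin recruitment detected by chemiluminescent reagent, read after 1 h at ambient temperature.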
# Six1-Eya2 inh: Six1/Eya2 interaction inhibition; Q15475+O00167; AlphaScreen GST-Six1/His-Eya2 binding, biochemical; hits give low values; control for the full effect not named in the record; activity change, % (no concentration beside the values); 360,000 tested, 0.56% active; AID 651725; in the data active = activity change below about -65%; inconclusive = about -30% to -65%; inactive = above about -30%; also: % is scaled to controls: 0 for no effect and ±100 for the full control effect; compound concentration not given in the record
# Target sequence (O00167 whole entry, looked up): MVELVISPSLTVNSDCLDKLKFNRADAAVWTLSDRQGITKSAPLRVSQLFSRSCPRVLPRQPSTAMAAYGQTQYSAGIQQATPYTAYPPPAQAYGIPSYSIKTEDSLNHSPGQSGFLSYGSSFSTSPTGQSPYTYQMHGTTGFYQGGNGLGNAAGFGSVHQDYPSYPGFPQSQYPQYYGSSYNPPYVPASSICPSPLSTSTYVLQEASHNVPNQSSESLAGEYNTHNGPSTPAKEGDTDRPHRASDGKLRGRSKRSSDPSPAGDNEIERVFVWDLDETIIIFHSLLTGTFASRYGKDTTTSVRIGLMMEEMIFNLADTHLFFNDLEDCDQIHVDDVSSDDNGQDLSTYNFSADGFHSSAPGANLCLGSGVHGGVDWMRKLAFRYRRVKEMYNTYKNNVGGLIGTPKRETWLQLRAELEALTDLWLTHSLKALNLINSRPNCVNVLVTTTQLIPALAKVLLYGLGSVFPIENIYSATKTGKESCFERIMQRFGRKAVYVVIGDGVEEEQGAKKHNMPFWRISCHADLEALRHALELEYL
# Target sequence (Q15475 whole entry, looked up): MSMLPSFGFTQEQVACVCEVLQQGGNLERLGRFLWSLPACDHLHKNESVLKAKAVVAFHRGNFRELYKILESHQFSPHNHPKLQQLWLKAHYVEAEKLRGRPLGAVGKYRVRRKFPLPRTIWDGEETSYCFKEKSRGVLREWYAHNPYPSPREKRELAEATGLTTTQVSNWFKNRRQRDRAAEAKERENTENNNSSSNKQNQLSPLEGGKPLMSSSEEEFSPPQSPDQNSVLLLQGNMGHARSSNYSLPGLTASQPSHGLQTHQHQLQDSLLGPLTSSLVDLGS
#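 GST-Six1 + His-Eya2 (5X stock: 250/500 nM); Tris pH 8.0, 300 mM NaCl, 0.05% BSA, 0.02% Tween 20; GSH donor/Ni acceptor beads; 1 h 37 °C dark; AlphaScreen readout.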
# CtBP-E1A inh: CtBP/E1A binding inhibition. AlphaScreen GST-E1A/His-CtBP binding, 1536-well; hits give low values; control for the full effect not named in the record. activity change, % (no concentration beside the values). 340,000 tested, 0.49% active. AID 651724; in the data active means activity change below about -65%; inconclusive means about -30% to -65%; inactive means above about -30%; also: % is scaled to controls: 0 for no effect and ±100 for the full control effect; compound concentration not given in the record
#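 AlphaScreen with 125 nM GST-E1A and 125 nM His-CtBP (5X stocks) in Tris pH 8.0, 300 mM NaCl, BSA, Tween 20, TCEP. Compounds preincubated 2 h at 37 deg C, then glutathione donor/nickel acceptor beads added for 1 h at 37 deg C in dark.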
# TRPML1 inh: inhibitors of human TRPML1 channel; Q9GZU1; TRPML1-inducible cells, Ca2+ dye fluorescence, FDSS; hits give low values; inhibition of EC80 agonist-evoked calcium signal; activity change, negative = inhibition, % (test concentration not listed); 390,000 tested, 0.02% active; in the data active means activity change below about -50%; inconclusive means about -30% to -50%; inactive means above about -30%;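 also: stimulus is agonist 54-4 at its EC80 concentration; % is scaled to controls: 0 for no effect and ±100 for the full control effect; compound concentration not given in the record; the text of the record puts the active cut at -80%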
#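 Tet-induced TRPML1-DL cells loaded with Ca8 no-wash calcium dye were read kinetically on FDSS. Compound addition was followed by EC80 agonist 54-4 (4 uM final); inhibition was read over 110 s.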
# TRPML1 agonist: agonists of human TRPML1 channel; Q9GZU1; TRPML1-expressing cells, Ca2+ dye fluorescence, FDSS; host cell line not named in the record; reference of the full effect not given here; activation, % (concentration not given with the values); 410,000 tested, 0.12% active; in the data active = activation above about 50%; inconclusive = about 30% to 50%; inactive = below about 30%; also: 0% is about no effect; the text of the record puts the active cut at 80%
#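 Calcium fluorescence on an FDSS kinetic reader gave the read-out. Tet-induced TRPML1-DL cells were plated overnight, dye-loaded (Ca8 with quencher, 45-90 min, room temperature, dark), then read 110 s after compound addition, and again 110 s after 4uM final 54-4 (EC80).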
# * marks the source's active call; other numbers are inactive results; ? = inconclusive; . = no result given; & = joins results of further samples; [ ] = another dose, or the depositor's remark.
SMILES,PINK1 modulator,D2 agonist,Six1-Eya2 inh,CtBP-E1A inh,TRPML1 inh,TRPML1 agonist
O=C(c1sc2cc([N+](=O)[O-])ccc2c1Cl)N1CCCCC1,-0.1%,1.0,-23,-11,-5,-0.9
O=C(COC(=O)C1CCCCC1)Nc1ccc(S(=O)(=O)N2CCOCC2)cc1,2.0%,2.2,0,0,16,-0.5
COc1ccc(C)cc1NC(=O)c1ccc2c(c1)nnn2C1CCCC1,-0.2%,.,.,.,5,0.9
COCc1nnc(NC(=O)C2CC(=O)N(c3ccc(C)c(Cl)c3)C2)s1 (stereo not drawn),-3.3%,-1.3,-4,13,-5,0.8
ON(Cc1c(F)cccc1Cl)Cc1c(F)cccc1Cl,-0.2%,-2.4,2,.,-15,0.2
O=C(CN1CCN(c2ccc(O)cc2)CC1)Nc1ccc(-c2ccccc2)cc1,0.4%,12,-14,-9,7,-0.1
COc1cc(OC)c(C2SCCCS2)cc1OC,2.1%,1.2,-4,-1,-10,-0.3
CCOC(=O)c1ccc(N2C(=O)CC(N(C)CCc3ccc(OC)c(OC)c3)C2=O)cc1 (stereo not drawn),-1.2%,-3.0,3,0,5,-0.6
Nc1nc(SCc2ccc(Br)cc2)[nH]c(=O)c1-c1ccccc1,5.4%,-1.7,-10,-4,86,0.2
Cc1sc2ncnc(SC(C)C(=O)N3c4ccccc4Sc4ccccc43)c2c1C (stereo not drawn),6.8%,-2.7,-15,-1,12,2.2
COc1ccccc1C(=O)NNC(=O)CN1C(=O)c2ccccc2C1=O,-0.4%,-2.7,1,4,27,-0.5
Cn1c(-c2ccc(Cl)cc2)cnc1NCc1cc2c(cc1[N+](=O)[O-])OCO2,17%,-2.4,?,-3,-8,0.3
CCc1ccc(NS(=O)(=O)c2ccc(C(=O)N(C)C)s2)cc1,1.9%,.,.,.,18,-0.7
O=C(NCc1ccccc1)C1=C[C@H](c2coc3ccccc3c2=O)C[C@H](OCCCCO)O1,1.2%,0.4,4,1,-2,0.8
Cc1c2cnn(-c3ccccc3)c(=O)c2c(C)n1C(C)C(=O)Nc1ccc(Br)cc1F (stereo not drawn),2.8%,.,.,.,0,0.6
O=C(NCCC(c1ccccc1)c1ccccc1)c1cnc2sccn2c1=O,8.0%,-6.5,-2,7,-6,0.7
CC(C)(C)c1cc(C(=O)NNC(=O)Nc2ccccc2)n(Cc2ccccc2)n1,3.3%,6.3,1,.,24,3.8
Cc1cccc(NC(=S)NC(C)CCc2ccccc2)c1 (stereo not drawn),?,-2.6,4,0,-6,0.8
Nc1ccc2c(c1)Cc1cc(N)c(Br)cc1-2,-2.4%,-0.2,-26,-18,-22,4.0
CCOc1cc(N2CCOCC2)c(OCC)cc1NC(C)C(=O)N1CCC(C)CC1 (stereo not drawn),3.2%,7.2,-9,-8,-11,-0.4
COc1ccc(NS(=O)(=O)c2ccc(NS(C)(=O)=O)cc2)cc1,-3.8%[38.3 µM],-0.5,22,91,4,-0.6
O=C(Nc1ccccc1Cl)c1cc(S(=O)(=O)N2CCOCC2)cs1,.,-2.9,0,-1,-7,-0.2
CCOc1ccc(/C(O)=C2/C(=O)C(=O)N(CC3CCCO3)C2c2ccc(C)o2)cc1 (stereo not drawn),0.3%,-1.5,-1,7,-19,-0.3
CNC(=O)C1CN(C(=O)c2nn(Cc3ccccc3)c(=O)c3ccccc23)c2ccccc2O1 (stereo not drawn),0.4%,-0.6,1,4,-6,-0.2
CCC1(CC)NC(=O)N(CC(=O)Nc2ccc(C)cc2C)C1=O,0.6%,-7.7,3,16,14,0.2
CCCCOC(=O)Nc1nc(CC(=O)OCC)cs1,-2.1%,0.0,1,-11,-12,-1.0
O=S(=O)(NC1=NCCCCC1)c1ccc(F)cc1F,0.5%,-1.6,8,-1,-2,0.9
Cc1oc(-c2ccccc2)nc1C(=O)OCC(=O)NCc1ccc(F)cc1,2.0%,-0.5,-1,-5,12,-0.8
Cc1cc(C(=O)N2CCN(c3cccc(Cl)c3)CC2)c2c(C)nn(-c3ccccc3Cl)c2n1,0.8%,.,.,.,24,-0.2
C[C@@H](C(=O)Nc1ccc2c(c1)OCCO2)n1nnc2ccccc2c1=O,-0.6%,14,6,7,-4,2.2

# Reformatted with values under each structure: part of the list above
# Below each SMILES: PINK1 modulator | D2 agonist | Six1-Eya2 inh | CtBP-E1A inh | TRPML1 inh | TRPML1 agonist
Cc1oc(-c2ccccc2)nc1C(=O)OCC(=O)NCc1ccc(F)cc1
→ 2.0% | -0.5 | -1 | -5 | 12 | -0.8
Cc1cc(C(=O)N2CCN(c3cccc(Cl)c3)CC2)c2c(C)nn(-c3ccccc3Cl)c2n1
→ 0.8% | . | . | . | 24 | -0.2
COc1ccccc1C(=O)NNC(=O)CN1C(=O)c2ccccc2C1=O
→ -0.4% | -2.7 | 1 | 4 | 27 | -0.5
CCOc1cc(N2CCOCC2)c(OCC)cc1NC(C)C(=O)N1CCC(C)CC1 (stereo not drawn)
→ 3.2% | 7.2 | -9 | -8 | -11 | -0.4
Cc1c2cnn(-c3ccccc3)c(=O)c2c(C)n1C(C)C(=O)Nc1ccc(Br)cc1F (stereo not drawn)
→ 2.8% | . | . | . | 0 | 0.6
O=C(NCc1ccccc1)C1=C[C@H](c2coc3ccccc3c2=O)C[C@H](OCCCCO)O1
→ 1.2% | 0.4 | 4 | 1 | -2 | 0.8
C[C@@H](C(=O)Nc1ccc2c(c1)OCCO2)n1nnc2ccccc2c1=O
→ -0.6% | 14 | 6 | 7 | -4 | 2.2

# Further entries follow:
SMILES,PINK1 modulator,D2 agonist,Six1-Eya2 inh,CtBP-E1A inh,TRPML1 inh,TRPML1 agonist
CCCn1ccc2c(OCC(=O)NCc3ccc(F)cc3)cccc2c1=O,1.1%,.,.,.,3,0.5
CCN(C(=O)CSc1nc2nc(C)cc(C)n2n1)c1ccccc1,2.4%[38.3 µM],-3.1,-3,4,0,0.1
CCC1CCCCN1C(=O)Cn1c(C(=O)OC)cc2ccsc21 (stereo not drawn),-0.3%[38.3 µM],-3.3,0,-6,-4,0.0
Cc1nn(CC(=O)NC2CCS(=O)(=O)C2)c(C)c1[N+](=O)[O-] (stereo not drawn),0.2%,-2.6,2,12,-3,-0.5
Cc1ccc(CNC(=O)Cn2ccc(NC(=O)OCc3ccccc3)nc2=O)o1,0.5%,-4.4,-8,2,-7,-0.6
CN(C)c1ccc(C=C2C=C(c3ccccc3)OC2=O)cc1,10%,-11,?,?,3,0.6
OCCOCCn1c(C(CO)Nc2nc(-c3ccc(Cl)cc3)cs2)nc2ccccc21 (stereo not drawn),2.1%,-6.4,-11,-8,36,-0.4
COCCNC(=O)c1ccccc1-c1nc(-c2ccccc2Cl)no1,-1.6%,-1.0,-2,11,6,0.1
Fc1ccc(-c2csc(Nc3ccccn3)n2)cc1,6.3%,-3.1,-11,5,-27,-0.3
CCn1c(SCC(=O)N(C)CCC#N)nc2cc(S(=O)(=O)N3CCOCC3)ccc21,-0.1%,-1.9,-1,4,22,-0.6
Cc1c(C)c2cc3c(c(C)c2oc1=O)OCN(CCc1ccc(F)cc1)C3,0.1%,.,.,.,-24,0.7
Cc1ccc(N2CC(C(=O)OCc3ccc([N+](=O)[O-])cc3)CC2=O)cc1 (stereo not drawn),2.5%,-1.4,0,2,-3,0.0
Cc1ccc(CS/C(Nc2ccccc2C)=C(\C#N)C(N)=O)c(C)c1,6.7%,0.2,-3,0,46,0.4
CCOC(=O)/C(=C\c1ccc(Cl)cc1)c1nc2sc(C)c(C)c2c(=O)[nH]1,-1.5%,-2.6,6,11,-17,-0.2
O=C(CCC(=O)c1cccs1)OCC(=O)c1ccccc1F,3.1%,-5.8,-6,0,5,-0.2
O=C(NS(=O)(=O)Oc1ccc(F)cc1F)OC[C@@H]1CCCN2CCCCC12 (stereo partly drawn),1.9%,-3.4,0,-2,7,-0.3
CCOc1ccccc1Oc1cn[nH]c1-c1ccc(OC)cc1O,2.1%,3.8,-3,-2,-15,0.2
CN(CC(=O)Nc1ccc(C(N)=O)cc1)S(=O)(=O)c1ccc2c(c1)OCCO2,0.5%,-0.9,1,-4,-6,0.3
CCOC(=O)C1Nc2ccc(C(F)(F)F)cc2C2c3ccccc3CC12 (stereo not drawn),-1.3%,3.7,-15,.,10,0.4
Cc1ccccc1C(=O)NC1CC2CCCC(C1)N2Cc1ccccc1Cl (stereo not drawn),0.4%,-1.5,-3,2,1,-0.5
Cc1ccc(-c2nc3c(c(=O)[nH]c(=O)n3CC(C)C)n2CC(C)C)cc1[N+](=O)[O-],2.7%,2.1,-1,1,29,2.1
Cc1cc(C)c(NC(=O)COCc2cc(-c3cccs3)on2)c(C)c1,0.5%,.,.,.,3,0.6
Cc1ccc(CCNC(=O)CCS(=O)(=O)c2ccc3c(c2)oc(=O)n3C)cc1,0.2%&19%,-6.5,-1,-12,4&-8,-1.6&-0.9
O=C(O)c1ccccc1-n1cnnn1,-0.4%,-3.1,5,-6,.,.
CNC(=S)Nc1ccc(OCc2ccccc2)cc1,2.6%,-18,-9,4,14,1.0
O=C(N/N=C1/CC2CCC1C2)c1cc2ccccc2cc1O (stereo not drawn),1.7%,0.3,0,1,-18,0.9
O=C(Cn1ncc2c([nH]c3ccccc32)c1=O)N1CCCCC1,0.3%,-3.5,2,2,7,-0.2
O=C(O)c1cccc(NC(=S)NC(NC(=O)c2ccco2)C(Cl)(Cl)Cl)c1 (stereo not drawn),0.8%,-2.6,-10,-22,3,-0.4
CCCCn1c2ccccc2c2nnc(SCCN3CCCCC3)nc21,6.2%,-5.0,-15,-9,5,-0.9
O=C(CNc1cccc(F)c1)Nc1cccc(S(=O)(=O)N2CCCCC2)c1,2.2%,-0.4,-4,3,18,-0.5
COc1cccc(C2=CC(c3ccc(OC)c(OC)c3OC)n3ncnc3N2)c1 (stereo not drawn),3.4%,.,.,.,4,-0.8
c1ccc(-c2nc3cnccn3c2Nc2ccc3c(c2)OCCO3)cc1,1.4%,2.1,-19,-15,-1,0.2
CC(=O)c1ccc(Oc2ccc(C(=O)c3ccc(C)c(C)c3)cc2[N+](=O)[O-])cc1,-2.1%,-0.8,-3,-2,15,0.5
C/C(CC(O)c1ccc2ccccc2n1)=N/O (stereo not drawn),6.1%[38.3 µM],-0.2,3,9,6,1.0
CC(=O)c1cc2c(cc1NC(=O)Cc1c(C)noc1C)OCO2,-1.1%,-5.6,-8,-2,1,0.6
CCSc1nnc(NC(=O)C2CC2c2ccccc2)s1 (stereo not drawn),0.4%,-1.2,-8,-4,-15,0.0
O=C(On1c(-c2ccccc2)nc2ccccc2c1=O)c1ccco1,.,-0.7,5,1,-11,-0.1
COc1cc(OC)c(N(C)S(=O)(=O)c2cccc(C(=O)Nc3nnc(C4CC4)s3)c2)cc1Cl,14%,0.8,-1,-1,-11,-0.6
C/C=C/C(=O)OCC(=O)Nc1cc(OC)c([N+](=O)[O-])cc1C,1.6%,1.5,0,10,-17,-0.2
CC(C)(C)c1cc(CCC(=O)NCC2CCCO2)cc(C(C)(C)C)c1O (stereo not drawn),-0.4%,1.3,0,7,-7,-0.3
COc1cc2c(ccc3cc(OC)c(OC)c(O)c32)cc1O,-1.3%,2.1,?,0,.,.
